Tg IFNy HTS – inhibitors of Toxoplasma gondii growth with IFN-gamma | Toxoplasma gondii growth in IFN-gamma-treated host cells; hits give low values; reference of the scale not given here | activity change, negative = inhibition, %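 (about 20 µM by stock and volumes)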 | hit rate 3.8% among 69,000;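 active = below -70%; inconclusive = fit judged invalid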;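 note: host cells are HeLa cells infected with Toxoplasma gondii; parasite growth read as luciferase light; one replicate is shown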
Active calls of the source: *; i = inactive; u = inconclusive; & = joins results of further samples. Not all compounds are listed (hit frequency here may not be typical).

structure	Tg IFNy HTS
NC(=O)c1cc(-n2cnc3ccccc32)cs1	u
CCNC(=O)[C@@H]1[C@@H](CO)[C@@H]2Cn3c(cccc3=O)[C@@H]2N1C(=O)CC1CC1	7
Cc1ccccc1-c1ncc(CN2CCC3(CC2)C(=O)NCCCN3C)cn1	19
C=CCNc1ncnc2c1cnn2-c1cccc(C)c1	176
COc1ccc(CNC(=O)c2c(O)c3cccnc3n(-c3ccccc3)c2=O)cc1	u
CC(C)(C)c1ccc(CSC2=Nc3ccccc3C3=NC(CCC(=O)NCc4ccco4)C(=O)N23)cc1 (stereo not drawn)	-54
Cn1cc(S(=O)(=O)N2CCCCC2CCc2ccccc2)cn1 (stereo not drawn)	1
Cn1c2ccccc2c2c1cc(C(=O)N1CCN(c3ccncc3)CC1)n2S(C)(=O)=O	-56
Cc1ccc(CNC(=O)c2ccc(-c3nc(CN4CCc5ccccc54)c(C)o3)cc2)o1	143
OC[C@@H]1[C@@H](c2ccc(-c3cccnc3)cc2)[C@@H]2CN(Cc3ccccn3)CCCCN12	-13
O=C(Nc1ccccc1F)c1c(O)c2cccnc2n(-c2ccc(F)cc2)c1=O	51
CN1C2CCC1CC(NC(=O)Nc1ccc(F)cc1F)C2 (stereo not drawn)	-49
Cc1ccc(-c2coc(-c3ccc(NS(=O)(=O)c4ccc(Cl)cc4)cc3)n2)cc1C	-33
Cc1c(CN(C)C(=O)C(=O)c2ccco2)cnn1C	7
Cc1ccc(S(=O)(=O)Nc2ccc(S(=O)(=O)Nc3nc(C)cc(C)n3)cc2)cc1	48

Later entries
structure	Tg IFNy HTS
Cc1cc(C(=O)Nc2ccccc2N2CCOCC2)c(C)o1	-15
NC1(C(=O)O)CCN(Cc2ccccc2-c2ccco2)C1 (stereo not drawn)	4
C=CCOc1ccc(C(=O)N2CCC(=O)NCC2C)cc1OCC (stereo not drawn)	2
Cc1ccc(C)c(OCCNC(=O)c2cc(=O)[nH][nH]2)c1	3
CC1(COc2ccc(CC3SC(=O)NC3=O)cc2)CCCCC1 (stereo not drawn)	49&78
Cc1cc(C)cc(NC(=O)Cn2ncc3c(N4CCN(c5ccccn5)CC4)ncnc32)c1	-63
CCn1c(CC2CCN(C(=O)C3COCCO3)CC2)nn(C)c1=O (stereo not drawn)	28
CCC(=O)N1Cc2cc(C(=O)N3CCCCC3)nc(-c3cccc(-c4cccnc4)c3)c2[C@H]1CCO	-33
CCC(=O)N1C[C@H]2[C@@H](c3ccccc31)[C@H](CO)N2C(=O)CC1CC1	-43
COc1ccc2c3c(n(C)c2c1)[C@@H](CO)N(CC1CC1)CC31CN(Cc2ccc(F)cc2)C1	-45
OC1(c2cccc(C(F)(F)F)c2)CCN(Cc2ccc3[nH]ccc3c2)CC1	-40
CCS(=O)(=O)N1CCC2(CC1)OC(=O)C(C)=C2C(=O)NCCCN1CCCCC1	42
COc1ccc(Cc2cnc(NC(=O)Cc3ccc(-n4nnnc4C)cc3)s2)cc1	-62
Clc1cncc(Cl)c1CN(Cc1cccnc1)Cc1ccc2c(c1)OCO2	-10
Cc1cc2n(n1)C(c1sccc1C)Nc1c(C)cccc1-2 (stereo not drawn)	i

Later entries:
structure	Tg IFNy HTS
COCCn1cc2c(n1)C(COCc1c(C)noc1C)OCC2 (stereo not drawn)	7
Cc1ccc(C(=O)Nc2ccc3c(c2)CCC(=O)N3CC(C)C)c(C)c1	-65
CCn1nnc2c1CCN(C(=O)c1ccc3c(c1)OCO3)C2COC (stereo not drawn)	4
CC(C)C(=O)c1cc2c(s1)CCN2C(=O)CN(C)C	-5
CC1=N[C@]2(CC[C@H]3CN(Cc4cnn(C)c4)C[C@H]32)C(=O)N1CC(C)C	56
O=C(NCCc1csc(-c2ccc(C(F)(F)F)cc2)n1)C(=O)Nc1ccccc1	-17
Cc1cccc2c(=O)n3c(nc12)CCCCC3	52
CC(=O)Nc1ccc(C(=O)N(C2CC2)C2(C(=O)NCc3ccccc3)CCN(C(C)=O)CC2)cc1	-3
O=C(NC1CCCCCC1)c1nc(Nc2ccc(F)cc2)c2ccccc2n1	-20
Cc1nc(N[C@H]2CCN(Cc3ccccc3)C2)c2cnn(C)c2n1	9
CCOC(=O)c1c(C)oc2cc(Br)c(OC(C)C(=O)OCC)cc12 (stereo not drawn)	-10
CCc1nnc(NC(=O)Cc2nn(C)c(=O)c3ccccc23)s1	18
Cc1ccc(S(=O)(=O)NCCc2sc(-c3cccc(C)c3)nc2C)cc1	i
COc1ccc2c(c1OC)OC[C@@H](c1ccc(OC)c(OC)c1OC)C2	0
O=S(=O)(Nc1nc(-c2ccc(F)c(F)c2)cs1)c1cccs1	171

(continued)
molecule | Tg IFNy HTS
COCCNC(=O)C[C@@H]1COC[C@H]2CN(C(=O)COC)C[C@H]12 | -3
O=C(CCC(=O)NC1CCCC1)NCc1cc(-c2ccccc2)n[nH]1 | 0
O=S(=O)(c1ccc2c(c1)CCCC2)N1CCC2(CC1)NCCN=C2NC1CCCCC1 | -30
COCC(=O)N1CC2(CN(Cc3ccccc3)C2)c2c(n(C)c3cc(OC)ccc23)[C@H]1CO | 16
COc1ccc2c3c(n(C)c2c1)[C@@H](CO)N(C(=O)C1CCOCC1)CC31CN(C(=O)Nc2cccc(F)c2)C1 | 12
Cc1ccc(Sc2cc(C)c(C)cc2N)c(C)c1 | 20
COc1ccc(-c2noc(-c3c(O)c4cc(C)ccc4[nH]c3=O)n2)cc1 | 16
O=C1c2ccccc2CCC1CNCCc1ccc(O)cc1 (stereo not drawn) | 19

Additional records
molecule | Tg IFNy HTS
O=C(c1ccoc1)N1CCC2OCCCC2(COCc2ccccn2)C1 (stereo not drawn) | -8
COCCN1C(=O)CCc2cc(NC(=O)COC)ccc21 | 30
FC(F)(F)c1cc(-c2ccccc2)nc(N2CCOCC2)n1 | -42
CCOC(=O)NC(Nc1cc(C)on1)(C(F)(F)F)C(F)(F)F | 94
CCN1c2cc(C)ccc2-n2cccc2C12CCN(C(=O)Nc1ccc(F)c(Cl)c1)CC2 | 0
CN1CCN([C@@H]2CCN(CC(=O)N(C)C)[C@@H]2Cc2ccncc2)CC1 | -7
O=C(NCc1ncc[nH]1)c1ccccc1C1CCNC1 (stereo not drawn) | 14
COc1ccc(C(=O)NCCc2sc(-c3ccc(Cl)cc3)nc2C)cc1OC | 14

Carrying on.
molecule | Tg IFNy HTS
C=CCn1c(=O)c(-c2nc(-c3ccc(C)c(C)c3)no2)c(O)c2ccccc21 | 39
COc1cc(-c2ccc3[nH]ncc3c2)cc(OC)c1OC | u
COc1ccccc1-c1ccc(NC(C)c2cnn(C)c2)nn1 (stereo not drawn) | 3
COc1cccc(-c2ccc3n(c2=O)C[C@H]2[C@H](CO)[C@@H](C(=O)N(C)C)[C@@H]3N2C(=O)c2ccccn2)c1 | -4
CSc1cccc(NC(=O)N2CCCCC2CCN2CCOCC2)c1 (stereo not drawn) | 4
Cc1nn(CCNS(=O)(=O)c2ccc(Cl)cc2)c(C)c1C | 19
C=CCn1nc(C(=O)O)c2c1CCC(N(C)Cc1ccc3nonc3c1)C2 (stereo not drawn) | 6
CC(Cn1cnc2ccccc2c1=O)NCc1nc(C2CCCCC2)no1 (stereo not drawn) | -45

Going on with the list:
molecule | Tg IFNy HTS
C=CCN1C[C@@H]2CN(S(=O)(=O)Cc3ccccc3)C[C@H]2C1=O | 4
CC12CCC(C(=O)N(CN3CCCCCC3)C1=O)C2(C)C (stereo not drawn) | 5
CC1(C2CCN(C(=O)c3cnccn3)CC2)CCCCN(CCc2ccccc2)C1=O (stereo not drawn) | -7
CCOC(=O)c1cnc2ccc(C(=O)OC)cc2c1Nc1ccc(C(=O)O)cc1 | -47
COc1cc(CNCc2ccc(OC)c(OC)c2OC)cc(OC)c1 | -6
O=C(c1cncc(-c2ccnc3[nH]ccc23)n1)N1CCCCC1 | -33
O=C(Cn1c(=O)ccc2cc(S(=O)(=O)N3CCCC3)ccc21)N1CCN(c2ccc(F)cc2)CC1 | 388
COc1cccc(CC2CN(C(=O)c3ccc(-c4ccn[nH]4)cc3)CCO2)c1 (stereo not drawn) | -2

Quoted at random: 2 entries already listed
molecule | Tg IFNy HTS
COc1cc(CNCc2ccc(OC)c(OC)c2OC)cc(OC)c1 | -6
CC1(C2CCN(C(=O)c3cnccn3)CC2)CCCCN(CCc2ccccc2)C1=O (stereo not drawn) | -7

Entries from the list above containing a CF3 group, in the order listed:
molecule | Tg IFNy HTS
OC1(c2cccc(C(F)(F)F)c2)CCN(Cc2ccc3[nH]ccc3c2)CC1 | -40
O=C(NCCc1csc(-c2ccc(C(F)(F)F)cc2)n1)C(=O)Nc1ccccc1 | -17
FC(F)(F)c1cc(-c2ccccc2)nc(N2CCOCC2)n1 | -42
CCOC(=O)NC(Nc1cc(C)on1)(C(F)(F)F)C(F)(F)F | 94

New compounds follow:
molecule | Tg IFNy HTS
CCOC(=O)c1nc(NCc2ccccc2OCC)c2ccccc2n1 | 3
CC(=O)NCCc1csc(C2CCN(C(=O)NCc3ccccc3)CC2)n1 | 23
CCCCS(=O)(=O)N1CCC2(CC1)CCn1c(-c3ccc(C(N)=O)cc3)cnc12 | -5
O=C(CSc1nnc(-c2ccccc2O)o1)NC1CCCCC1 | -16
C[C@@H]1CN([C@@H](C)CO)C(=O)c2cc(NS(=O)(=O)c3cccs3)ccc2O[C@H]1CN(C)S(=O)(=O)c1ccc(Cl)cc1 | 5
O=S(=O)(CCSCc1ccc(Cl)cc1)CCSCc1ccc(Cl)cc1 | -10
CN1CC(=O)N2C[C@H](NC(=O)c3cccc(-c4ncc[nH]4)c3)C[C@H]2C1=O | 1
Cc1oc(C2CCN(C(=O)Nc3cccc(Cl)c3C)CC2)nc1C(=O)N1CCCC1 | 34

Another view of part of the listing above:
> O=C(CSc1nnc(-c2ccccc2O)o1)NC1CCCCC1
  Tg IFNy HTS: -16
> C[C@@H]1CN([C@@H](C)CO)C(=O)c2cc(NS(=O)(=O)c3cccs3)ccc2O[C@H]1CN(C)S(=O)(=O)c1ccc(Cl)cc1
  Tg IFNy HTS: 5
> O=S(=O)(CCSCc1ccc(Cl)cc1)CCSCc1ccc(Cl)cc1
  Tg IFNy HTS: -10
> CN1CC(=O)N2C[C@H](NC(=O)c3cccc(-c4ncc[nH]4)c3)C[C@H]2C1=O
  Tg IFNy HTS: 1

The listing continues:
molecule | Tg IFNy HTS
CO[C@@H]1CCN(C(=O)Cc2ccsc2)[C@H]1Cc1ccncc1 | -35
COC(=O)c1ccc(-c2noc(-c3c(O)c4cc(C)ccc4[nH]c3=O)n2)cc1 | 44
Cc1nn(C)cc1NC(=O)C[C@@H]1CC[C@@H]2[C@@H](COc3ccc(NC(=O)C4CCOCC4)cc3C(=O)N2C)O1 | 0
c1ccc(C(c2ccccc2)c2noc3c2CN(CCn2cncn2)CC3)cc1 | 17
CN(C)CCN1CCOCC2(CCCN(C(=O)c3cccnc3)C2)C1 (stereo not drawn) | -15
COCC(=O)Nc1ccc2c(c1)OC[C@H](C)N(C)C[C@H](C)[C@@H](OC)CN(C)C2=O | -47
O=C1C(Cc2c[nH]c3ccccc23)N=C2c3ccccc3N=C(SCc3cc(=O)n4cc(Cl)ccc4n3)N12 (stereo not drawn) | 1
CN(Cc1noc(-c2ccccc2)n1)Cc1ncccc1C(=O)O | 23

Additional results
molecule | Tg IFNy HTS
Cc1[nH]cnc1CN(Cc1ccc(F)cc1)Cc1ccco1 | 43
CC1(C)CC[C@]2(C(=O)O)CC[C@]3(C)C(=CCC4[C@@]5(C)CC[C@@H](O)C(C)(C)C5CC[C@]43C)C2C1 (stereo partly drawn) | -58
COc1ccc(-c2nc(Cc3noc(-c4cccc(F)c4)n3)c(C)o2)cc1 | 23
CCc1ncnc2c1CCN(C(=O)c1ccc3[nH]ccc3c1)CC2 | 0
Cc1cc(-c2c(-c3ccccc3)ncn2CCN2CCCC(CO)C2)n[nH]1 (stereo not drawn) | 1
O=S(=O)(CCc1nc2ccccc2[nH]1)c1ccc(Cl)cc1 | 21
COc1ccc(S(=O)(=O)N2CCC3(CC2)Nc2cc(C)ccc2-n2cccc23)cc1Cl | 13
CCn1cc(CN(CCCN(C)C)Cc2ccc(C)o2)c(C)n1 | 11

The list continues:
molecule | Tg IFNy HTS
C/C=C/c1ccc([C@H]2[C@H]3CN(CCC(F)(F)F)CCCCN3[C@H]2CO)cc1 | -27
CC(C)Cc1ccc(S(=O)(=O)N2CCN(C(=O)Cn3ccnc3)CC2)cc1 | 7
COC(=O)C(NC(=O)Cc1ccncc1)c1cccc(C)c1 (stereo not drawn) | 1
OCC1(O)CCCN(Cc2ccccc2-c2ccccc2)CC1 (stereo not drawn) | -5
CN(C)CC(=O)N1C[C@H]2CCC[C@]2(COCC2CCOCC2)C1 | 74
O=C(Nc1ccnn1C1CCN(c2ncccc2Cl)CC1)c1cccnc1 | 11
CCCCc1ncc([C@@H]2C[C@H](NC(C)=O)C[C@H](CC(C)C)O2)[nH]1 | -2
Cc1nc(CN2CCN(C(=O)c3cn(-c4ccccc4)nn3)CC2)cs1 | -42

Next part.
molecule | Tg IFNy HTS
COc1cc(O)cc(OC)c1OC | 14
CC(C)NC1CCc2c(ccc(=O)n2CC2CC2)C1 (stereo not drawn) | 91
N#C[C@@H]1[C@H](c2ccccc2-c2cccc(F)c2)[C@H](CO)N1C(=O)Nc1cc(F)ccc1F | -24
CC(C)CN1c2ccccc2[C@H]2CN(S(=O)(=O)C3CC3)CC[C@@H]21 | -6
CSCCC1NC2(C(=O)Nc3ccc(Cl)cc32)[C@@H]2C(=O)N(C3CCCC3)C(=O)[C@H]12 (stereo partly drawn) | -12
COc1ccc(C)cc1S(=O)(=O)NCCc1csc(-c2ccc(Cl)cc2)n1 | 32
O=C(Cc1ccncc1)NCC[C@H]1CC[C@H](NS(=O)(=O)c2ccccc2Cl)[C@@H](CO)O1 | 32
O=C(Cn1ncc2c(N3CCCC3)ncnc21)NC1CCCC1 | -15

Following part:
molecule | Tg IFNy HTS
CC12CC3CC(C)(C1)CC(OCCN)(C3)C2 | -29
CCCCC(F)(F)C(=O)CC[C@H]1[C@H](O)CC(=O)[C@@H]1CCCCCCC(=O)O | -7&-1
CCSCCC(=O)N1CCCC(c2nn(C)c(=O)n2-c2ccccc2)C1 (stereo not drawn) | -2
CC(C)c1noc(-c2cc(=O)n(CC(=O)Nc3ccc(F)c(F)c3)c3ccccc23)n1 | 28
C=C(C)CN(C)C(=O)[C@@H]1C[C@H](N)CN1C | 1
Cc1cccc(CN2C(=O)CC[C@H]3[C@H]2CCN3C(=O)c2ccoc2C)n1 | -3
c1ccn2cc(C34CC5CC(CC(C5)C3)C4)nc2c1 | -39
